GLA inh pH 4.5: inhibitors of human alpha-galactosidase A at pH 4.5; activity change, negative = inhibition, % at 105 µM; P06280; purified enzyme, 4-MU-alpha-Gal fluorescence, pH 4.5; 230,000 tested, under 10 active; AID 1467; inconclusive = small, poorly fitted or top-dose-only inhibition, or a rising curve; inactive = flat fitted curve, though single readings scatter; no compound was filed as active;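 note: 0% = full activity with enzyme and -100% = basal without enzyme; dose as in the result columns while the protocol names 77 µM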
Target sequence (P06280 whole entry, looked up): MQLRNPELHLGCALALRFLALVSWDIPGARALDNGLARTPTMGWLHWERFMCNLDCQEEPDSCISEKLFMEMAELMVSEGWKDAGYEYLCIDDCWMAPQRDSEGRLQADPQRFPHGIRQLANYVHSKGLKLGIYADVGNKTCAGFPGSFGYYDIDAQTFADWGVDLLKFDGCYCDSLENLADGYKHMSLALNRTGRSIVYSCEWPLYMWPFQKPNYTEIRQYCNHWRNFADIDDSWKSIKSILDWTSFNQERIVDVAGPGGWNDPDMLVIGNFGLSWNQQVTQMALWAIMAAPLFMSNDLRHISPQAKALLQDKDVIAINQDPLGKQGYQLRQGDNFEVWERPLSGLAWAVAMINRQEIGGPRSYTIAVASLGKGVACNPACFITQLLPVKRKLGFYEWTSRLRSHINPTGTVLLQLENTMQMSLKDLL
Rango release inh: prevents RanGTP from dissociating the Rango-importin beta complex; O95149+P62826; actives 0.071% (n = 340,000); Biochemical FRET Rango-importin beta, RanGTP-induced dissociation; Potency, µM (doses to about 46.1 µM), for the others: at the highest dose activity change, negative = inhibition; active means falling FRET ratio curve, often poorly fitted, with flat reads before Ran was added; inconclusive means other falling curves, or compound fluorescence or quenching; inactive means flat or rising ratio curve;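 note: potency is the fitted concentration of half-maximal effect; % of control where 0% means no effect; nearly all actives have a fitted effect of over 45% in size; -100% = wells without RanGTP and RCC1; the record marks most hits as doubtful in a second field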
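Recombinant Rango FRET biosensor (EYFP–snurportin 1 IBB–cerulean CFP10) at 0.1 uM premixed with 0.25 uM importin beta in PBS, 1 mM DTT, 0.02% Tween-20, 0.1% BSA. Compound added 5 min; RanGTP-RCC1 (0.6 uM Ran, 2 mM GTP, 0.2 uM RCC1) then triggers release, read at 45 min.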
Rango complex inh: inhibitors of Rango-importin beta complex formation; actives 0.031% (n = 340,000); Potency, µM (titrated, usually from 92.2 µM), inactives show at the highest dose inhibition of complex formation; AID 540263; Rango CFP/YFP FRET sensor + importin beta, 45 min; active = rising FRET ratio curve, often small or poorly fitted; inconclusive = mostly compound fluorescence or quenching in the first reads; inactive = flat curves in all reads;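 note: potency is the fitted concentration of half-maximal effect; 0% = DMSO wells and 100% = buffer wells lacking importin beta; nearly all actives have a fitted effect of over 15% in size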
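FRET biosensor Rango (snurportin 1 IBB between N-terminal EYFP and C-terminal Cerulean), 50 nM in PBS/1 mM DTT/0.02% Tween-20/0.1% BSA, preincubated 5 min RT with compound; 0.125 microM importin beta added, 45 min RT, CFP/YFP FRET ratio read.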
miR-21 reporter: raises the signal of a miR-21 reporter | HeLa miR-21 FLuc reporter, luciferase, 48 h | Potency, µM (titrated, usually from 38.3 µM), without a hit: at the top dose reporter change, positive = more light | 340,000 tested, under 10 active; active = well fitted rising curve with a large enough effect; inconclusive = small, poorly fitted or top-dose-only effect; inactive = no such curve, though single readings can be large or run the other way;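 note: % of control where 0% means no effect; miR-21 action dims this reporter so a rising signal means less miR-21 action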
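Compounds were titrated across several concentrations (up to approximately 40 uM) and incubated 48 hours with HeLa miR-21-FLuc reporter cells (miR-21 target sequence downstream of FLuc, endogenous miR-21). Readout was firefly luciferase luminescence after lytic detection reagent.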
Active calls of the source: *; u = inconclusive; x = no result given; & = joins results of further samples. Some of the compounds tested; rates above refer to the full screens.

SMILES | GLA inh pH 4.5 | Rango release inh | Rango complex inh | miR-21 reporter
CC(NC(=O)c1ccc(Cl)cc1)C1CC2CCC1C2 (stereo not drawn) | x | 10% | -5.3% | 0%
Cc1c(N(C(=O)CNC(=O)c2ccccc2)C2(C(=O)NC3CCCC3)CCCCC2)c(=O)n(-c2ccccc2)n1C | 4 | -16% | -0.1% | -1%
Cc1occc1C(=O)Nc1ccc2c(c1)CCC2 | 8 | -12% | 1.3% | -49%
C=CCN1CC(O)=C(c2nc3ccccc3[nH]2)C1=N | -3 | 0% | -0.7% | -42%
Clc1ccc(CSc2ncnc3c2ncn3C2CCCCO2)cc1 (stereo not drawn) | x | -6% | 2.7% | x
Cc1cc(C)c(NC(=S)N(C)C)c(C)c1 | 6 | -8% | -1.6% | -3%
COc1ccccc1N(CC(=O)NCCSCc1ccccc1Cl)S(C)(=O)=O | x | -2% | 0.1% | 7%&11%
CCNc1ccc(P(=O)(c2ccccc2)c2ccccc2)cc1 | 4 | -8% | 1.7% | -10%
COc1ccccc1CN1C(=NC(=O)C2CCCCC2)SC2CS(=O)(=O)CC21 (stereo not drawn) | x | -3% | 0.0% | 0%
Cc1c(C)n2c(SCC(=O)N3CCOCC3)nnc2[nH]c1=O | x | 16% | 4.0% | x
COc1cccc(C(=O)N2CCOCC2)c1OC | 2 | -12% | -0.1% | 1%
CC(=O)N1CCN(C(=O)CCc2nc3ccccc3c(=O)[nH]2)CC1 | 3 | 0% | -1.1% | -1%
CC1CN(C(=O)CCC(=O)NCc2ccc(Cl)cc2)c2ccccc2O1 (stereo not drawn) | x | -15% | 0.6% | -3%
Cc1ccc(SCc2nc(-c3ccncc3)no2)cc1 | -10 | 16% | 3.1% | -31%
COc1ccc(OC)c(CCNC(=O)c2cccc(NC3=NC4CS(=O)(=O)CC4S3)c2)c1 (stereo not drawn) | x | 19% | u | -1%
Cc1nc(C)n(CCNC(=O)c2ccco2)n1 | x | 1% | -0.5% | -2%
Cc1ccc(S(=O)(=O)N2c3ccc(S(N)(=O)=O)cc3CC2C)cc1 (stereo not drawn) | -1 | -3% | -1.2% | -9%
Cn1c(O)c(C=NCC2CCNCC2)c(=O)n(C)c1=O | 7 | x | x | -8%
CC1(C)NC(=O)N(CCSc2ccc(Cl)cc2)C1=O | 11 | 0% | 7.1% | 0%
Cc1cc(-c2ccccc2)nc(Cl)c1C#N | -1 | 7% | 3.8% | -5%
COc1ccc(NN=Nc2ccc([N+](=O)[O-])cc2)cc1 | x | -11% | u | -59%
Cc1ccc(Cl)cc1C1=CC(=O)C[C@H](c2ccc(F)cc2)C1 | x | 6% | -2.1% | x
COc1ccc(NC(=O)C(Sc2nnc(-c3ccncc3)n2-c2ccccc2C)c2ccccc2)cc1Cl (stereo not drawn) | -6 | 11% | -3.3% | -11%
CN(CC(=O)Nc1cccc(F)c1)C(=O)c1cc2c(s1)CCCCC2 | x | 3% | 0.4% | x
CCSc1nnc(NC(=O)C(CC)(C(F)(F)F)C(F)(F)F)s1 | -2 | 10% | -2.2% | u
O=C(CN1C(=O)NC2(CCCCC2)C1=O)N(Cc1ccco1)Cc1cccs1 | x | -11% | -4.0% | x
CC(OC(=O)c1cccc(S(=O)(=O)N2CCN(C)CC2)c1)C(=O)Nc1ccc(C(N)=O)cc1 (stereo not drawn) | x | 1% | -1.9% | x
CCOCCCNC(=O)C(c1ccc(C)cc1)N(Cc1cccs1)C(=O)CNC(C)=O (stereo not drawn) | 2 | -1% | 3.1% | -8%
CC(C)N=C(NS(=O)(=O)c1cccs1)c1ccccc1 | x | -4% | -3.2% | -5%
COc1ccc(CNC(=O)[C@H](C)N2C(=O)N3CCc4c([nH]c5ccc(OC)cc45)[C@@]3(C)C2=O)cc1 | x | -11% | 0.7% | 2%

Reformatted with tabs: part of the list above.
canonical_smiles	GLA inh pH 4.5	Rango release inh	Rango complex inh	miR-21 reporter
COc1ccc(NN=Nc2ccc([N+](=O)[O-])cc2)cc1	x	-11%	u	-59%
O=C(CN1C(=O)NC2(CCCCC2)C1=O)N(Cc1ccco1)Cc1cccs1	x	-11%	-4.0%	x
CC(OC(=O)c1cccc(S(=O)(=O)N2CCN(C)CC2)c1)C(=O)Nc1ccc(C(N)=O)cc1 (stereo not drawn)	x	1%	-1.9%	x
Cn1c(O)c(C=NCC2CCNCC2)c(=O)n(C)c1=O	7	x	x	-8%

(more compounds)
SMILES | GLA inh pH 4.5 | Rango release inh | Rango complex inh | miR-21 reporter
CCOCCCNC(=O)C1c2ccccc2C(=O)N2CCc3ccccc3C12 (stereo not drawn) | 2 | 0% | 0.7% | -5%
COc1ccc(C(=O)OCC(=O)Nc2cccc(S(=O)(=O)N3CCCCCC3)c2)cc1[N+](=O)[O-] | x | 2% | -1.5% | x
O=C1CCCN1CN(C(=O)c1ccc2c(c1)OCO2)c1ccc(F)cc1 | -7 | 20% | -4.1% | 0%
CC1=NN(c2ccccc2)C(=O)/C1=C\c1cn(CCC#N)nc1-c1ccc(Cl)cc1 | -1 | 10% | 2.1% | -3%
COc1ccc(CN(Cc2ccncc2)C(=O)CCC(=O)O)cc1 | 2 | 4% | -1.0% | 0%
COc1ccc2nc(NC(=O)CN3C(=O)NC4(CCCC4)C3=O)sc2c1 | x | 15% | -5.9% | x
CCOc1c(OC)cccc1C1CC(=O)Nc2cc3c(cc21)OCCO3 (stereo not drawn) | 1 | 0% | -0.8% | 17%
O=C(/C=C(/c1ccc(Cl)cc1)n1cncn1)c1ccccc1 | 5 | -10% | 4.4% | 0%
NS(=O)(=O)c1ccc(S(=O)(=O)N2CCN(C3CCCC3)CC2)cc1 | x | 19% | -0.2% | 1%
COc1ccc(Cc2nnn(CC(=O)O)n2)cc1 | 2 | 7% | 2.6% | 2%
CC(=O)Oc1ccc2c(=O)c(-c3nc4ccccc4s3)coc2c1 | -1 | -15% | u | -50%
CCC(C)NCCOCCOc1ccc(Cl)cc1Br (stereo not drawn) | 2 | 0% | -3.3% | -8%
CCOC(=O)C1=C(COC(=O)CNC(=O)c2ccc(Cl)cc2Cl)NC(=O)NC1C (stereo not drawn) | x | -1% | 1.4% | x
Cc1ccc(C)c(Cn2c(C(C)O)nc3ccccc32)c1 (stereo not drawn) | -3 | 16% | 0.3% | 0%
Cc1ccc(OCc2n[nH]c(=S)n2-c2ccccc2)cc1C | 7 | -4% | -1.5% | 2%

Reformatted as comma-separated lines: entries from further up.
mol,GLA inh pH 4.5,Rango release inh,Rango complex inh,miR-21 reporter
CCOC(=O)C1=C(COC(=O)CNC(=O)c2ccc(Cl)cc2Cl)NC(=O)NC1C (stereo not drawn),x,-1%,1.4%,x
Cc1ccc(C)c(Cn2c(C(C)O)nc3ccccc32)c1 (stereo not drawn),-3,16%,0.3%,0%

Next results.
SMILES | GLA inh pH 4.5 | Rango release inh | Rango complex inh | miR-21 reporter
CCOc1cccc(Oc2ncccc2C(=O)/C(C#N)=C/N(C)C)c1 | -26 | -4% | 0.1% | -3%
Cc1ccc(NC(=O)C2CCN(S(=O)(=O)c3ccc4c(c3)NC(=O)C(C)S4)CC2)cc1C (stereo not drawn) | x | 14% | 0.0% | u
O=C(NCCc1cccc(Cl)c1)c1ccc(OC2CCN(Cc3ccccn3)CC2)cc1 | x | -15% | -3.1% | -16%
O=C(CNc1ccccc1N1CCCC1=O)Nc1cc(C(F)(F)F)ccc1-n1cncn1 | x | 14% | -0.3% | x
CN(CC(=O)Nc1ccccc1C(F)(F)F)Cc1c(O)ccc2ccccc12 | x | -12% | -0.7% | 1%
COc1ccc(Cl)cc1NC(=O)COC(=O)c1ccc(Cl)nc1 | x | u | u | x
CC(=O)Nc1ccc(N(C(=O)c2ccco2)C(C(=O)NC2CCCCC2)c2ccccc2)cc1 (stereo not drawn) | x | u | 1.3% | -5%
CC1(C)C(=O)OC(c2cc(Br)ccc2O)C(C)(C)C1=O (stereo not drawn) | -2 | 16% | 1.9% | 19%
Cc1ccccc1-c1noc(-c2ccccc2C(=O)O)n1 | -1 | 2% | -0.5% | -31%
S=c1[nH]c2cc3c(cc2[nH]1)OCCO3 | -3 | -2% | 2.4% | -12%
Cc1ccc(CN2CCC(CNC(=O)c3ccc(NC(=O)C4=CSCCO4)cc3)CC2)cc1 | x | -8% | -2.1% | -7%
O=C(O)CC/C(=C\c1cc([N+](=O)[O-])ccc1Cl)c1nc2ccccc2s1 | -12 | 2% | 4.8% | 0%
COC(=O)c1ccc(NC(=O)CSc2nn3c(=O)c(C)nnc3s2)cc1 | x | 1% | -0.5% | 4%
O=C(Nc1ccc(/C=C/c2nc3ccccc3o2)cc1)c1c(F)cccc1F | -6 | u | u | -15%
O=C(NNc1nc(-c2ccc(F)cc2)cs1)c1ccccc1 | 10 | -2% | -1.2% | u
CC(=NCCCn1ccnc1)C1=C(O)c2ccccc2C1=O | -12 | 14% | -0.3% | -7%
CCOc1ccccc1C(=O)NN1CCOCC1 | x | 1% | -0.3% | -1%
COc1ccccc1NC(=O)C1CCCN(c2cnccn2)C1 (stereo not drawn) | x | 11% | 3.8% | -8%
COc1ccc(C(=O)OCC(=O)Nc2cccc(C(C)=O)c2)c(OC)c1OC | x | 17% | 3.6% | -7%
Cc1cc(-c2ccc3ccccc3c2)n2ncnc2n1 | 0 | 12% | 1.4% | -27%
Cc1nn(CC(=O)NC2CCC(C)CC2)c(=O)c(C#N)c1C (stereo not drawn) | x | 6% | u | x
O=C(CSc1nnc(SCc2ccc(Cl)cc2)s1)c1ccc2c(c1)OCO2 | -13 | 8% | -2.1% | -18%
CC/C(=C\c1ccc(Cl)cc1)c1ccncc1 | x | -1% | 0.9% | x
O=C(Cn1cnc2sc3c(c2c1=O)CCCC3)NCC(=O)Nc1c(F)cc(F)cc1Br | x | 12% | -0.5% | -1%
COc1ccccc1C(c1nnnn1C1CCCC1)N1CCN2CCCC2C1 (stereo not drawn) | -7 | -1% | -2.9% | -4%
CCn1c(=O)c2cc(C(=O)N3CCOCC3)sc2c2ccccc21 | 1 | -3% | -0.6% | -10%
COc1ccc(C(=O)N2CCN(Cc3ccccc3)CC2)cc1[N+](=O)[O-] | x | 10% | -4.9% | 2%
CSc1ccccc1NC(=O)COC(=O)CCCOc1ccc(C)cc1 | x | 8% | 0.4% | x
COc1ccccc1C(CNC(=O)CCNC(=O)c1ccccc1Cl)N1CCCC1 (stereo not drawn) | x | 7% | -3.7% | x
O=C(NC(=S)NCCC1=CCCCC1)c1cncc(Br)c1 | 1 | 1% | 0.2% | -15%
COc1ccc(C(=O)NCC2(c3ccccc3)CCOCC2)cc1[N+](=O)[O-] | -4 | 3% | 0.3% | -13%
O=C(Nc1ccc(O)c2c(=O)cc(-c3cccc(Cl)c3)oc12)c1ccc(F)cc1 | 0 | 9% | 0.5% | 0%
Cc1cc(C(=O)NN=C(Cc2ccccc2)Cc2ccccc2)c(C)o1 | 6 | 0% | 7.1% | -40%
O=C(CCc1nnc2ccc(NCc3ccco3)nn12)Nc1ccc(F)cc1 | x | -4% | 6.4% | -5%
CC(C)(C)NC(=O)NC(=O)CN1CCCc2ccccc21 | 3 | 1% | 3.8% | -7%
CC(Sc1nc(N2CCOCC2)c2c(c1C#N)CC(C)(C)OC2)C(=O)O (stereo not drawn) | x | 17% | 2.1% | -3%
Cc1cc(C)n2nc(-c3ccco3)nc2n1 | -12 | -12% | 1.0% | -1%
Cc1ccnc(NS(=O)(=O)c2ccc(NS(=O)(=O)c3ccc([N+](=O)[O-])cc3)cc2)n1 | x | 2% | 3.1% | -1%
COc1ccc(CN(Cc2ccccn2)C(=O)CN2C(=O)COc3ccccc32)cc1 | 3 | 10% | -2.9% | 0%
CC(C)(C)NC(=O)C(c1cccnc1)N(C(=O)c1ccc(Cl)nc1)C1CCCC1 (stereo not drawn) | 7 | 13% | 0.1% | 0%
N/C(COc1cccc(Cl)c1)=N\NS(=O)(=O)c1ccccc1 | -16 | 5% | 3.0% | 2%
CCOc1cc(C2C3=C(CC(C)(C)CC3=O)OC3=C2C(=O)CC(C)(C)C3)cc([N+](=O)[O-])c1O | -4 | 16% | -6.4% | -6%
COc1ccccc1NS(=O)(=O)c1ccc(C)c(NC(=O)C2CCCO2)c1 (stereo not drawn) | x | -6% | 3.3% | x
